# KCNQ2 enhance: KCNQ2 (rat) channel potentiation; B-score at 10 µM; CHO-K1 KCNQ2, FluxOR thallium flux fluorescence; hits give high values; 310,000 tested, 0.54% active;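 active = fluorescence ratio B-score at least 3 SD of library B-scores, with initial fluorescence B-score within 3 SD, cut at about 5.3 in these data; same plate scores as AID 2156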;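 also: B-score of peak minus minimum over baseline fluorescence ratio after K+ and Tl+ stimulus; positive B-score means potentiation of KCNQ2 with more thallium influx and brighter signal; only the inactives scoring about 0 or higher are listed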
# Target sequence (O88943 whole entry, looked up): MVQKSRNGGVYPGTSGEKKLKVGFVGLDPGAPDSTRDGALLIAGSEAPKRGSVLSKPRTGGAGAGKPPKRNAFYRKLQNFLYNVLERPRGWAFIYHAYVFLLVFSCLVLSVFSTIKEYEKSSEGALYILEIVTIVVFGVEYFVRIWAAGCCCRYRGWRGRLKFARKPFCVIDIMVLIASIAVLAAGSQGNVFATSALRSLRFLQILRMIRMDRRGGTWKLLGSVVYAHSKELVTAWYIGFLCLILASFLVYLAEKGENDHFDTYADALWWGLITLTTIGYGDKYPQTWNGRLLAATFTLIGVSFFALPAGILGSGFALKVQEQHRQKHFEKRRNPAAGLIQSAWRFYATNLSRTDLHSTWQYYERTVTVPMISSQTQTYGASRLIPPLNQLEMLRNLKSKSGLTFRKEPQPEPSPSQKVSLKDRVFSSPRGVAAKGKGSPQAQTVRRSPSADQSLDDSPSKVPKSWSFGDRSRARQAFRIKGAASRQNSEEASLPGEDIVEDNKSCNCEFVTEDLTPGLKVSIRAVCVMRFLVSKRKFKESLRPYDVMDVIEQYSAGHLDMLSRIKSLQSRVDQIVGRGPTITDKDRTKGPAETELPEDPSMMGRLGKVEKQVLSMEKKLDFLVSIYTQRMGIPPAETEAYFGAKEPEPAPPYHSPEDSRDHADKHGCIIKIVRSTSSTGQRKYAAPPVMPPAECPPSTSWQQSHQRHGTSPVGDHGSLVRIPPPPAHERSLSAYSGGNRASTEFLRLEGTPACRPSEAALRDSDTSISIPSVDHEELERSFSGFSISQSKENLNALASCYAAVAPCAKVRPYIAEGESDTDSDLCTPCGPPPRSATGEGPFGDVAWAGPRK
# KCNQ2 enhance baseline: recorded beside KCNQ2 enhance, whose call it bears; B-score; compound at 10 µM; measured here: initial fluorescence intensity artifact check;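 brightness before thallium and not channel activity; 0 = typical well and far values either way flag optical interference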
# * = called active by the depositor; & = joins results of further samples.
KCNQ2 enhance	KCNQ2 enhance baseline	SMILES
0.33	-0.02	COc1ccc(C(=O)N/N=C(\C)CC(=O)Nc2ccc3c(c2)OCCO3)c(OC)c1
0.45	-1.6	Cc1ccc(C(=O)N2CCN(S(=O)(=O)N3CCCCCC3)CC2)cc1
3.9	-0.62	CCC(C(=O)NC1CCCC1)N(C(=O)Cn1nnc(-c2ccc(C)o2)n1)c1cccc(O)c1 (centres undefined)
1.5	-0.05	NC(=O)c1sc2nc3c(c(-c4cccs4)c2c1N)CCCC3
0.61	-0.56	COc1ccc(N2CCN(c3ccc(C(N)=O)cc3[N+](=O)[O-])CC2)cc1
1.2	0.24	Cc1c(C(=O)Nc2c3c(nn2C(C)(C)C)CS(=O)(=O)C3)cccc1[N+](=O)[O-]
0.68	3.3	CCOC(=O)c1sc(NC(=O)CSc2nc3cccnc3n2C)nc1C
0.04	-0.99	CN(c1ccc(C(=O)N2CCN(Cc3ccc4c(c3)OCO4)CC2)cc1)S(C)(=O)=O
0.8	-0.02	COc1ccc2c(c1OC)C(=O)OC2Nc1nc2ccccc2s1 (centres undefined)
1.9	-0.21	Cc1ccc([N+](=O)[O-])c(NC(=O)COC(=O)C2CC3CCCC(C2)C3=O)c1C (centres undefined)
1	-1.4	Cc1cc(C)nc(/N=C(\N)Nc2ccc(S(=O)(=O)O)cc2)n1
0.28	0.07	Cc1ccc(OCCC(=O)OCC(=O)N2CCN(S(=O)(=O)c3ccc(C)cc3)CC2)cc1

# Following part.
KCNQ2 enhance	KCNQ2 enhance baseline	SMILES
0.84	0.18	CC(C)(C)c1cc(C(=O)O)nn1-c1ccccc1
0.1	0.63	CCc1nc(SCC(=O)O)c(C#N)cc1C
0.56	-0.9	COc1cc(S(=O)(=O)NCc2cccnc2)c(OC)cc1Br
0.95	0.58	CC(C)[C@H](NC(=O)NCc1ccc(F)cc1)C(=O)O
0.02	1	O=C(CCCN1C(=O)/C(=C/c2ccccc2Cl)SC1=S)N1CCOCC1
0.83	-1.2	CN(C)S(=O)(=O)c1ccc(NC(=O)C2CCCN(C(=O)c3ccc(Cl)cc3)C2)cc1 (centres undefined)
0.37	-2.8	CC(C)CCNC(=O)C1CCN(S(=O)(=O)c2ccc3c(c2)CC(C)N3C(=O)C2CCC2)CC1 (centres undefined)
0.51	-0.66	Cc1ccccc1C(=O)Nc1ccc2c(c1)OCO2
1.6	2.3	CCn1c(C(C)NC(=O)c2cccc(C)c2)n[nH]c1=S (centres undefined)
0.03	-0.25	O=C(CCl)N(Cc1ccccc1)c1ccccc1
0.12	1.3	Cc1ccc(N=Nc2c(C)[nH]n(-c3ccccc3)c2=O)cc1Br
0.68	-1.5	Cc1ccc2c(c1)N(S(=O)(=O)c1ccc(CN3C(=O)c4cccnc4C3=O)s1)CCO2

# (cont.)
KCNQ2 enhance	KCNQ2 enhance baseline	SMILES
0.06	1.2	COc1ccc(-n2cnc3ccccc3c2=O)c([N+](=O)[O-])c1
1.1	1.1	O=C(Cc1cccs1)Nc1cccc(-c2nc3ccccc3[nH]2)c1
0.32	-0.8	Cc1ccccc1-c1noc(CCC(=O)NCC2CCCO2)n1 (centres undefined)
0.11	0.36	O=C(OC1CCOC1=O)c1cc(-c2ccc(Br)cc2)nc2ccccc12 (centres undefined)
0.79	-0.26	NS(=O)(=O)c1ccc(NC(=O)/C=C/c2ccc3c(c2)OCO3)cc1
0.46	0.09	CCCc1cc(=O)[nH]c(SCc2cc(Cl)ccc2OC(F)F)n1
0.15	-0.04	CC(CN1CCOCC1)OC(=O)C(c1ccccc1)c1ccccc1 (centres undefined)
1.1	0.55	Cc1cc2cc(CNC(=S)NC3CCCCC3)ccc2n1C
0.3	-1.9	COc1ccc(/C=C/C(=O)c2cccc(-n3cnnn3)c2)cc1O
0.67	0.28	Cc1cccc(-n2cc(-c3ccccc3)c3c(=O)[nH]cnc32)c1
0.75	-0.9	COc1ccc(CCN(C)Cc2c(O)ccc3ccccc23)cc1OC
1.8	0.06	COc1ccc(NC(=O)c2ccc3nc[nH]c3c2)c(OC)c1

# (further entries)
KCNQ2 enhance	KCNQ2 enhance baseline	SMILES
0.47&0.92	0.24&-0.02	OCCOCCN1CCN(C2=Nc3ccccc3Sc3ccccc32)CC1
2.1	-0.98	O=C(COC(=O)c1cccc2c1C(=O)c1ccccc1C2=O)NC1CCCCC1
0.41	0.08	Cc1cc(C)c(S(=O)(=O)c2cc(F)ccc2C)c(=O)[nH]1
0.34	-0.96	CCNCc1cc(Br)c(OCC(=O)Nc2ccccc2)c(OC)c1
1.3	-0.91	CC(=O)C1=C(C)NC(=O)CC1c1ccc(Br)cc1 (centres undefined)
1.5	-0.4	O=C(O)c1cccc(NC(=O)c2cccc(S(=O)(=O)N3CCCCC3)c2)c1
0.92	-2	Cc1cc(C(F)(F)F)n2nc(-c3sccc3-n3cccc3)cc2n1
0.13	-0.29	O=C(N/N=C/c1ccoc1)c1ccccc1Br
0.16	-0.83	C/C(CCc1ccccc1)=N\NC(=O)CCc1ccccc1
1.1	1.9	CCOC(=O)C1CCN(C(=O)C2CCCN(S(=O)(=O)c3ccc(OC)c(Cl)c3)C2)CC1 (centres undefined)
4	0.21	CCOc1nc2ccccc2cc1C=O
2.2	-0.72	c1ccc(-c2n[nH]c3ccccc23)cc1

# (list continues)
KCNQ2 enhance	KCNQ2 enhance baseline	SMILES
0.15	-0.16	COc1ccc(/C=N/N=C(\N)c2nonc2N)cc1OC
2	-0.86	O=C(Nc1ccccc1)Nc1cccc2ccccc12
0.86	-0.04	S=C(NCc1ccco1)N/N=C/c1ccncc1
0.59	0.96	Cc1nn(-c2ccccc2)c(Cl)c1/C=N/NC(=O)c1ccccc1F
1.7	-0.04	O=C(COc1ccccc1)OC(C(=O)c1ccccc1)c1ccccc1 (centres undefined)
0.41	0.58	Oc1c(Cl)cc(Cl)cc1C=Nc1ccccc1N1CCCC1
0.37	0.77	COc1cccc(NC(=O)Nc2nc(SC)ns2)c1
0.46	-0.65	Cc1noc(C)c1CSCC(=O)Nc1cc(Cl)ccc1N1CCOCC1
1.2	-0.6	N#CCS(=O)(=O)c1ccccc1
0.01	0.03	CCCC1C2CN(C(C)=O)CC=C2C(C#N)=C(N)C1(C#N)C#N (centres undefined)
0.28	-0.01	Cc1ccc(S(=O)(=O)N(CCCN(C)C)Cc2ccc3c(c2)OCO3)cc1
2.4	1.1	CCCCCC(=O)NNC1=NCC(Cc2ccccc2)S1 (centres undefined)

# (continued)
KCNQ2 enhance	KCNQ2 enhance baseline	SMILES
1	0.76	CSc1nc(N)nc(SCC(=O)C(C)(C)C)c1C#N
5.5*	0.7*	CCN(CC)c1ccc(NC(=O)CSc2ccsc2[N+](=O)[O-])c(C)c1
0.04	1.3	O=c1c2c3c(sc2nc2n1N=C(c1cccs1)CS2)CCCC3
1	-1.5	Oc1ccccc1/C=N/N1CCCCC1
0.19	-0.7	COC(=O)N/N=C/C1=CCC2CC1C2(C)C (centres undefined)
0.05	-2.2	O=C(C1=C(O)C(=O)N(CCN2CCOCC2)C1c1ccc([N+](=O)[O-])cc1)c1cc2ccccc2o1 (centres undefined)
0.23	0.04	Cc1ccc([N+](=O)[O-])cc1NC(=O)CCSc1ccc(Cl)cc1
0.01	-0.72	Cc1ccc(C)c(CN2CCSCC2)c1
0.85	0.1	Cc1cc(C)cc(NC(=O)c2ccc(CNc3c(N4CCOCC4)c(=O)c3=O)cc2)c1
0.54	1.3	CCNC(=O)NC1(C(=O)Nc2ccc3c(c2)CCC3)CCCCC1
0.35	0.04	Cc1ccc(S(=O)(=O)NCCc2ccc(S(N)(=O)=O)cc2)cc1
1.6	-0.61	Cc1ccc(NC(=O)C(=O)NCC2CCN(C(=O)c3cccc([N+](=O)[O-])c3)CC2)cc1

# (list continues)
KCNQ2 enhance	KCNQ2 enhance baseline	SMILES
0.23	-0.03	CCN1CCN(S(=O)(=O)Cc2ccccc2)CC1
1.2	-0.1	COc1ccc(-c2ccc3oc(-c4ccc(OC)cc4)c(-c4ccc(OC)cc4)c3c2)cc1
1	-1	CCC(C)NC(=O)CNC(=O)c1nn(-c2ccc(OC)cc2OC)c(=O)c2ccccc12 (centres undefined)
0.18	1.9	CCOC(=O)c1nn(-c2ccccc2C)c(=O)cc1OCC(=O)Nc1cccc(OC)c1
0.89	0.35	Cn1ccnc1SCC(=O)Nc1ccccc1
0.42	0.7	COCCN1Cc2cccc(C(=O)NC(C)c3cccs3)c2C1=O (centres undefined)
0.05	-0.65	O=C(O)CSCC(=O)Nc1ccc(C(F)(F)F)cc1
0.11	-0.38	Cc1cc2c(cc1S(=O)(=O)N1CCCCC1)OCC(=O)N2
1.6	0.86	CC(C)CC(=O)Nc1ccc(Nc2ccccc2)cc1
0.89	0.53	O=C(CCc1ccccc1)Nc1ccccc1C(=O)N1CCOCC1
1.3	-0.54	Cc1c(-c2ccncc2)oc2ccc(Br)cc2c1=O
0.64	-0.12	NC(=S)NC1CCS(=O)(=O)C1 (centres undefined)

# Another view of some results above.
# Below each SMILES – KCNQ2 enhance, KCNQ2 enhance baseline
> CCn1c(C(C)NC(=O)c2cccc(C)c2)n[nH]c1=S (centres undefined)
    1.6, 2.3
> O=C(CCl)N(Cc1ccccc1)c1ccccc1
    0.03, -0.25
> Cc1ccc(N=Nc2c(C)[nH]n(-c3ccccc3)c2=O)cc1Br
    0.12, 1.3
> Cc1ccc2c(c1)N(S(=O)(=O)c1ccc(CN3C(=O)c4cccnc4C3=O)s1)CCO2
    0.68, -1.5
> COc1ccc(-n2cnc3ccccc3c2=O)c([N+](=O)[O-])c1
    0.06, 1.2
> O=C(Cc1cccs1)Nc1cccc(-c2nc3ccccc3[nH]2)c1
    1.1, 1.1

# Following part.
KCNQ2 enhance	KCNQ2 enhance baseline	SMILES
0.89	0.52	CC(C)N1CC2=C(OC(N)=C(C#N)C2c2cccnc2)/C(=C/c2cccnc2)C1 (centres undefined)
0.29	1.3	CC(C)Cc1ccc(/C=C/C(=O)N2CCOCC2)cc1
0.49	-1.6	Cc1ccc(C(=O)Nc2nc3nc(-c4ccccc4)cc(=O)n3[nH]2)cc1
0.01	-1.9	Nc1cc(N)nc(SCc2cc([N+](=O)[O-])cc3c2OCOC3)n1
0.05	0.56	COc1ccc(S(=O)(=O)NCCc2cn3nc(C)c(C)nc3n2)cc1
2.5	-0.54	CC1(C)CC(=O)c2c(O)cc(OCC(=O)Nc3ccc(CCO)cc3)cc2O1
0.07	-0.03	CCn1c(=O)c(=O)n(CC)c2cc(S(=O)(=O)Nc3ccc(C)cc3)ccc21
1.8	-0.03	Cn1c(=O)c2c(nc(Br)n2CC(=O)c2cccs2)n(C)c1=O
3.3	-0.19	Cc1ccc(CNC(=O)C2CCN(S(=O)(=O)c3ccc4c(c3)CC(C)N4C(=O)C3CC3)CC2)cc1 (centres undefined)
0.49	0.17	CCN(CC)c1ccc(C2NC(=O)NC(C)=C2C(=O)Nc2ccccc2)cc1 (centres undefined)
0.08	0.51	Cc1cc(C)n(CC(=O)N/N=C/c2ccccn2)n1
1.9	1.2	COC(=O)CCC(NS(=O)(=O)OCC(Cl)(Cl)Cl)c1ccccc1 (centres undefined)

# (more compounds)
KCNQ2 enhance	KCNQ2 enhance baseline	SMILES
0.46	-0.23	O=C(O)C1C2C=CC3(CN(C/C=C/c4ccccc4)C(=O)C13)O2 (centres undefined)
1.6	-0.49	CCOc1ccc(NC(=O)C2CCN(S(=O)(=O)c3ccc4c(c3)N(C(C)=O)CCO4)CC2)cc1
1.4	1.1	O=C1CN(C(=O)CNCc2ccccc2)c2ccccc2N1
0.36	-0.09	CCn1nc(C)c(/C=N\NC(=O)c2cccc(OC)c2)c1C
0.02	-0.86	Cc1nc2sc(-c3ccccc3)cc2c(=O)n1-n1cccc1
0.39	-0.16	CC(C)(C)c1ccc(NC(=O)CC2(C(F)(F)F)OCCO2)cc1
0.07	1.7	Cc1c(C)n(CC(O)CN2CCN(C)CC2)c2ccccc12 (centres undefined)
0.22	1.6	O=C(NNC(=S)Nc1ccc(Br)cc1)c1ccccc1
0.06	-1	CC1=C(C(=O)OCc2ccccc2)C(c2ccccn2)c2c(n(C)c(=O)n(C)c2=O)N1 (centres undefined)
1.7	-0.68	Cn1cnnc1SCC(=O)Nc1sccc1C#N
2.1	-1.6	CCc1nnc(NC(=O)CCC(=O)N2CCN(CCOc3ccc(C)cc3)CC2)s1
0.79	-0.02	CC(=O)c1ccc(N2CCC(c3cc(-c4ccc(Cl)cc4Cl)n[nH]3)CC2)c([N+](=O)[O-])c1

# Next entries follow.
KCNQ2 enhance	KCNQ2 enhance baseline	SMILES
0.77	-1.6	O=C(CCCCn1c(=O)[nH]c2ccccc2c1=O)N1CCN(c2ncccn2)CC1
0.78	-0.99	Cc1cccc(NC(=S)NCCN2CCOCC2)c1C
1.5	-0.46	N#CCC(=O)Nc1sc2c(c1C(N)=O)CCCC2
0.23	1.4	Nn1c(SCC(=O)Nc2ccc(F)cc2)nnc1C1CCCCC1
0.88	0.21	CC(=O)NS(=O)(=O)c1ccc(NC(=O)c2ccccc2F)cc1
1.3	-1.9	N#Cc1nnn(-c2cc(Cl)cc(Cl)c2)c1N
5.1	-1.4	Cc1[nH]n(-c2ccc(Cl)cc2)c(=O)c1/C=N/n1c(C)nc2ccccc2c1=O
0.55	0.39	COc1cccc(Oc2nc3ncn(Cc4ccccc4)c3c(=O)n2C)c1
0.17	-0.16	CC(C)C(=O)NC(=S)Nc1ccc(S(=O)(=O)N(C)Cc2ccccc2)cc1
0.08	1	Cc1ccc(OCC(=O)N(Cc2ccccc2)c2c(N)n(Cc3ccccc3)c(=O)[nH]c2=O)c(C)c1
0.09	-1.4	COc1ccc(NC(=S)NNC(=O)c2ccco2)c(OC)c1
0.01	0.73	CCNC(=O)NS(=O)(=O)c1cnccc1Nc1cccc(Cl)c1

# Single records, as listed above. Order of values: KCNQ2 enhance	KCNQ2 enhance baseline
# Shown for N#Cc1nnn(-c2cc(Cl)cc(Cl)c2)c1N : 1.3	-1.9
# Shown for CCCc1cc(=O)[nH]c(SCc2cc(Cl)ccc2OC(F)F)n1 : 0.46	0.09

# Bioassay records (PubChem)

# The list is partial; the hit share may differ from the screen's.
